Screens deposited in PubChem BioAssay by several laboratories.
Mtb bLac sens – beta-lactam sensitization of Mtb H37Rv, H37Rv; AID 434955, 2010; 330,000 compounds, 0.27% hits; M. tuberculosis H37Rv growth with meropenem, percent inhibition; hits of this screen are not shown here; inhibition, % at 25 µM;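 active = about 74% or more and at least 40 points above the plate without the antibiotic, then above 30% in a dose series; inconclusive = first-round hits that could not be retested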;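 note: growth measured after seven days incubation then overnight dye step; 0% = bacteria only wells and 100% = bacteria with antibiotic; twin plates without the antibiotic show which effects depend on it; some results filed as inactive read as strong as hits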
Arbovirus inh – antivirals against arbovirus infection, primary screen, cell-based, full library, 10K replicate subset; AID 1251, 2008; inhibition, % at 10 µM; 200,000 compounds, 0.37% hits; arbovirus infection cell-based antiviral screen;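 active = inhibition from about 30%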;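 note: bluetongue infection of BSR cells; cell survival read as ATP light after 72 h; 0% = infected wells without compound and 100% = uninfected wells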
YopH PTP inh – YopH tyrosine phosphatase inhibitors, primary screen, biochemical, fluorescence Ex485/Em525; YopH tyrosine phosphatase [Yersinia enterocolitica]; inhibition, %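 (about 10 µM by stock and volumes)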; 140,000 compounds, 0.16% hits;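 active = inhibition of 50% or more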;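 note: controls were vehicle for no effect and minimum signal wells for full effect; inactives centre near -20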
Mtb growth – M. tuberculosis H37Rv growth inhibitors, H37Rv strain (AID 1626). 220,000 compounds, 0.95% hits. inhibition, % at 10 µM; hits with a dose series show IC50 in µM. M. tuberculosis H37Rv growth inhibition; higher % means a stronger effect;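 active = confirmed in a dose series; inconclusive = inhibition above 80% but not taken into the dose series; inactive = below 80% or under 30% at every dose of the series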;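 note: bacteria incubated seven days before Alamar blue readout; 0% = bacteria only wells and 100% = bacteria with antibiotic wells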
RecA splice inh – Mtb RecA intein splicing inhibitors, primary screen, biochemical, fluorescence, HTS; Protein RecA (Mycobacterium tuberculosis (strain ATCC 25618 / H37Rv)), P9WHJ3; cell-free RecA intein splicing; inhibition, %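 (about 9 µM by stock and volumes)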; 290,000 compounds, 0.75% hits; in the data active = inhibition above about 30%; inconclusive = no clear call, values can overlap the other calls;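 note: 0% = vehicle wells and 100% = reference inhibitor control wells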
Target sequence (P9WHJ3 whole entry, looked up, canonical isoform): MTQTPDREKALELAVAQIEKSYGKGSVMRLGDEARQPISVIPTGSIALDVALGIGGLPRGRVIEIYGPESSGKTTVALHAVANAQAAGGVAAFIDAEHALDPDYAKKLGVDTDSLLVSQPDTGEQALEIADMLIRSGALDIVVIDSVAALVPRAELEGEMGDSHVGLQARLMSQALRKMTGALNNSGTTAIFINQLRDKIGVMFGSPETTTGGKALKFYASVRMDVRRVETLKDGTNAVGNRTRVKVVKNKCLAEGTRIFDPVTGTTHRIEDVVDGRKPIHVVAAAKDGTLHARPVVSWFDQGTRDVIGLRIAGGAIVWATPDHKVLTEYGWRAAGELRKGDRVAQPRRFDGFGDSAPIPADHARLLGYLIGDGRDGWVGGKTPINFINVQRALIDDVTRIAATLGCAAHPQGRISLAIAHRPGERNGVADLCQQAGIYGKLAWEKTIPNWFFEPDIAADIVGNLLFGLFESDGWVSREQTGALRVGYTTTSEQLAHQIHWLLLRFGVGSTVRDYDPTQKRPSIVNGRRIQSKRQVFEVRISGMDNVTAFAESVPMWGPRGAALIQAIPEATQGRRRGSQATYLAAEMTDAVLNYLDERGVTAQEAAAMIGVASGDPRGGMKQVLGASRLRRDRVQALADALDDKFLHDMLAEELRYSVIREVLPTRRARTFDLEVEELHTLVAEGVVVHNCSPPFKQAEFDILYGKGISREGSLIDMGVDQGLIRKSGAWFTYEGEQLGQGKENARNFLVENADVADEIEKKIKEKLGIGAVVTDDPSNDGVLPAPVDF
Arbovirus inh repeat – second read-out of Arbovirus inh, no call of its own (marks repeat the call); inhibition, %; measured here: 10K subset replicate screen; many hits read low in the repeat;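 first of two repeat runs on a subset; 0% = infected and 100% = uninfected wells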
Active calls of the source: *; ? = inconclusive; / = no result given.

SMILES	Mtb bLac sens	Arbovirus inh	YopH PTP inh	Mtb growth	RecA splice inh	others
CC(c1ccccc1)n1cc(C(=O)NCC2COc3ccccc3O2)nn1 (stereo unspecified)	0	-5	5	2%	/
NNC(=O)CNc1ccccc1Cl	-6	-2	/	-6%	-0.3
CC(C)(C)C1CCC(=NNc2nc3ccccc3[nH]2)CC1 (stereo unspecified)	-3	-18	/	1%	4.8
CCOc1ccc(CN2CCNC(=O)C2CC(=O)OC)cc1 (stereo unspecified)	-2	0	-46	-7%	-2.0	Arbovirus inh repeat=2
COc1ccc(C(CNC(=O)CSc2ccc(Br)cc2)N2CCOCC2)cc1 (stereo unspecified)	-3	/	/	/	-4.3
CC1CCCCN1C(=O)CCC(=O)Nc1nnc(C2CCCCC2)s1 (stereo unspecified)	-19	/	/	/	-3.2
COc1ccccc1N=C1SC(C)CN1C(=O)C1CCC1 (stereo unspecified)	-7	2	-27	-6%	-3.9
Cc1cc(N2CCCCC2)ccc1[N+](=O)[O-]	12	2	-18	2%	0.3
CC(NC(=O)c1cnc2n(c1=O)CCS2)c1ccccc1 (stereo unspecified)	-6	4	9	-6%	-2.1
O=C(Nc1ccc(F)cc1F)c1cc(-c2ccco2)on1	/	-2	-23	-1%	-0.4
COCC(C)n1c(SCC(=O)NNC(=O)c2ccccc2)nc2ccccc2c1=O (stereo unspecified)	-6	11	-21	-1%	-2.0
Cc1cc(C(F)(F)F)nc(SCCN2CCCCC2)c1C#N	3	/	/	/	-1.0
CC(=O)c1cccc(S(=O)(=O)N2CCC(C(=O)O)(c3ccccc3)CC2)c1	-8	/	/	/	-0.1
Nc1nc(-c2cccnc2)nn1C(=O)c1ccccc1Cl	/	2	/	-6%	2.9
COc1cc(/C=N/NC(=O)COc2c(C)cc([N+](=O)[O-])cc2C)ccc1OC(=O)c1ccccc1	-4	2	-3	4%	0.2
O=C(NCCN1CCOCC1)Nc1cccc(Cl)c1	3	4	/	3%	-7.0
Cc1ccc(C(=O)COC(=O)CNC(=O)c2ccc(N3C(=O)c4ccccc4C3=O)cc2)cc1C	5	-3	-18	6%	-0.1
Cc1sc(NC(=O)c2sc3nc4c(C)cccc4cc3c2N)c(C#N)c1C	6	-14	-17	-4%	2.4
COc1ccc(CCNC(=O)CSc2nnc3ccccn23)cc1	-5	2	/	-4%	0.0
O=C(CSc1ccsc1[N+](=O)[O-])Nc1cccc(F)c1	/	10	/	20%	-0.4
CCC(C)Sc1ccc([C@H]2N[C@@](Cc3ccccc3)(C(=O)OC)[C@H]3C(=O)N(CC)C(=O)[C@@H]23)cc1OC (stereo partly specified)	-3	/	/	/	0.7
Cc1ncc([N+](=O)[O-])n1CCOC(=O)Nc1ccc(Cl)c(Cl)c1	-5	9	-4	-2%	-1.4
CC(=O)NNC(=S)NC(=O)c1ccccc1	68	18	/	?	-1.0
COc1ccc(Cn2nnc3c(=O)[nH]c(C4CCN(S(=O)(=O)c5ccc(C)cc5)CC4)nc32)cc1	75	/	/	/	1.4
O=C(COC(=O)COc1cccc(Br)c1)Nc1c(Cl)cccc1Cl	-2	-1	-11	-7%	-0.6
Cc1ccc(N2C(=O)c3ccccc3C2=O)cc1Cl	87	-2	-42	72%	0.7
Cc1noc(C)c1CSCC(=O)NC1=NCCS1	4	/	-7	-8%	3.8
CN=C(Nc1cc(C)nn1-c1ccccc1)c1ccccc1F	3	-1	-9	-4%	-2.5
N#Cc1cccc(NC(=O)Cn2cnc(S(=O)(=O)N3CCc4ccccc43)c2)c1	6	/	/	/	-0.2
COc1cc(CNc2ccccc2SC)ccc1O	?	5	-29	-2%	5.3
O=C(c1c(F)cccc1F)N1CCC(O)(c2cccnc2)CC1	-3	13	-26	1%	-2.4
Cc1ccc(S(=O)(=O)NNC(=O)Nc2ccc(C)c(C)c2)c(C)c1	40	/	/	/	0.6
O=c1c2c3c(sc2nc(N2CCNCC2)n1CCc1ccccc1)CCCCC3	-6	/	/	13%	2.2
COc1cccc(C(=O)Nc2ccc3c(c2)n(C)c(=O)n3C)c1	4	/	/	/	0.5
CCCSc1nc2cc(C)c(C)cc2n1CC(O)CO (stereo unspecified)	1	14	/	2%	-5.0
CN(C(=O)COC(=O)c1c[nH]c(=O)[nH]c1=O)C1CCCCC1	-1	-1	-30	12%	2.6
O=C(CCN1C(=O)C2CC=CCC2C1=O)Nc1ccccc1Cl (stereo unspecified)	-1	/	/	/	17
COc1ccc(/C=N/NC(=S)NC2CCS(=O)(=O)C2)cc1 (stereo unspecified)	-6	5	-18	-3%	-12
N/C(=N\OC(=O)CCCCCN1C(=O)c2ccccc2C1=O)c1ccccc1	-10	3	-7	-11%	/
Cc1cc(=O)oc2c(CN3CCCC3)c(O)ccc12	3	/	/	/	-59
Cc1cccc(CN2C(=O)/C(=C\c3ccc(C(=O)NCCCN4CCN(C)CC4)cc3)Oc3ccccc32)c1	98	/	/	/	-80
O=c1oc2ccccc2c2c1ncn2CCN1CCOCC1	6	-3	-18	-17%	2.3
O=c1[nH]c(=O)n(Cc2ccccc2)c2nc(-c3ccc(C(F)(F)F)cc3)n(CCO)c12	1	/	/	/	-4.5
CC(C)(NC(=O)NC(CO)c1ccccc1)c1cccc(C(C)(C)NC(=O)NC(CO)c2ccccc2)c1 (stereo unspecified)	-5	/	/	/	23
CCOCC(=O)Nc1cc([N+](=O)[O-])ccc1OC	77	-1	/	6%	-2.0
Cc1sc2ncnc(NCC(c3ccco3)N(C)C)c2c1C (stereo unspecified)	-4	3	-29	-11%	0.8
Cn1nc(C(=O)OCC(=O)Nc2sccc2C(N)=O)c2ccccc2c1=O	-2	/	/	-8%	2.1
CC(OC(=O)[C@H](C)NC(=O)c1ccccc1Cl)C(=O)NCc1ccc2c(c1)OCO2 (stereo partly specified)	-5	/	/	/	-1.0
C=CCOc1c(OC)cc(Cl)cc1C1NC(=O)NC(C)=C1C(C)=O (stereo unspecified)	-5	0	37	-4%	3.4
COc1ccc(C2N(c3ccccc3)C(=O)C2(F)F)cc1OC (stereo unspecified)	93	/	/	/	7.6
CCC(Sc1nncn1C)C(=O)Nc1nnc(-c2ccccc2Cl)s1 (stereo unspecified)	-4	7	-45	5%	-0.6	Arbovirus inh repeat=9
COc1ccc(/C=C/C(=O)OCC(=O)Nc2c(C)cccc2C)cc1	4	1	/	3%	3.3
CS(=O)(=O)N(CC(=O)Nc1cccc(Cl)c1)c1ccccc1Cl	5	6	-6	2%	-1.9
Cc1ccc(CN(CC(=O)NCc2ccc3c(c2)OCO3)C(=O)c2csnn2)cc1	3	/	/	/	0.8
Cc1cc(=O)[nH]c(SCc2nnnn2-c2ccc(Cl)cc2)n1	3	4	-29	-2%	-0.5
Cc1ccccc1NC(=O)c1c(C)nc(SCC(=O)OCc2ccccc2)c(C#N)c1-c1ccc(F)cc1	0	-4	-16	-6%	-3.5
CCOC(=O)c1ccc(NC(=S)N(CCN2CCCCCC2)Cc2cccs2)cc1	-5	17	/	?	1.5
Clc1cncc(Cl)c1NNc1c2ccccc2nc2ccccc12	3	-14	-9	5%	-32
CCCn1c2ccc(F)cc2c2nnc(SCCN3CCOCC3)nc21	2	/	/	/	-0.9
C=CCNC(=O)C1CC1(c1ccc(C)cc1)c1ccc(C)cc1 (stereo unspecified)	-4	/	/	/	3.6

In the list so far, 5 have a nitro group on carbon:
SMILES	Mtb bLac sens	Arbovirus inh	YopH PTP inh	Mtb growth	RecA splice inh	others
Cc1cc(N2CCCCC2)ccc1[N+](=O)[O-]	12	2	-18	2%	0.3
COc1cc(/C=N/NC(=O)COc2c(C)cc([N+](=O)[O-])cc2C)ccc1OC(=O)c1ccccc1	-4	2	-3	4%	0.2
O=C(CSc1ccsc1[N+](=O)[O-])Nc1cccc(F)c1	/	10	/	20%	-0.4
Cc1ncc([N+](=O)[O-])n1CCOC(=O)Nc1ccc(Cl)c(Cl)c1	-5	9	-4	-2%	-1.4
CCOCC(=O)Nc1cc([N+](=O)[O-])ccc1OC	77	-1	/	6%	-2.0

Further results follow.
SMILES	Mtb bLac sens	Arbovirus inh	YopH PTP inh	Mtb growth	RecA splice inh	others
CCn1ccnc1CN(C)Cc1cn(-c2ccc(C)cc2)nc1-c1cccc(C)c1	100	-39	/	2.7µM*	10
O=C(Nc1ccc(-c2csnn2)cc1)C(Cl)(Cl)Cl	96	/	/	<0.2µM*	-2.5
CCCCN(C)C(=O)c1cn(-c2cccc(OC)c2)c(=O)c2ccccc12	1	/	/	/	1.5
O=C(Nc1nc(-c2ccccc2)cs1)c1cccc([N+](=O)[O-])c1C(=O)O	-6	8	-2	1%	-3.9
COc1ccc(NCC(O)Cn2cnc3c2c(=O)n(C)c(=O)n3C)cc1 (stereo unspecified)	-8	8	-3	3%	-3.7
Cc1cc(NC(=O)CSc2nc3ccc(Cl)cc3[nH]2)no1	-16	2	-13	3%	1.2
CC1CCc2c(sc(NC(=O)c3nc4ncccn4n3)c2C#N)C1 (stereo unspecified)	-7	/	/	-7%	-4.5
O=C(Nc1nnc(-c2ccncc2)o1)c1cccc(N2C(=O)CCC2=O)c1	7	4	/	-5%	4.1
Cc1cc(C(F)(F)F)n(-c2nc(C(=O)NN)cs2)n1	-3	1	/	3%	-2.8
O=C(CN(c1ccc(F)cc1)S(=O)(=O)c1ccc2c(c1)OCCO2)NCC1CCCO1 (stereo unspecified)	0	3	28	-7%	0.6
COC(=O)C1CN(C(=O)c2ccc(OC(F)F)cc2)c2ccccc2O1 (stereo unspecified)	2	/	/	/	3.7
CCc1nnc2n1N=C(c1ccc([N+](=O)[O-])cc1)CS2	-1	/	/	-6%	0.7
O=C(NCCCCc1ccccc1)C1CC(c2cc(C(F)(F)F)cc(C(F)(F)F)c2)=NO1 (stereo unspecified)	-6	/	/	-7%	-6.3
Cc1ccc2[nH]c(C(=O)N/N=C/c3ccccc3C(=O)O)c(-c3ccccc3)c2c1	99	/	/	/	6.5
Cc1cc(C)c(-n2c(O)c(C=NCCN3CCOCC3)c(=O)[nH]c2=O)c(C)c1	-4	4	-32	-3%	2.0

The list goes on; the last four above are carried over.
SMILES	Mtb bLac sens	Arbovirus inh	YopH PTP inh	Mtb growth	RecA splice inh	others
CCc1nnc2n1N=C(c1ccc([N+](=O)[O-])cc1)CS2	-1	/	/	-6%	0.7
O=C(NCCCCc1ccccc1)C1CC(c2cc(C(F)(F)F)cc(C(F)(F)F)c2)=NO1 (stereo unspecified)	-6	/	/	-7%	-6.3
Cc1ccc2[nH]c(C(=O)N/N=C/c3ccccc3C(=O)O)c(-c3ccccc3)c2c1	99	/	/	/	6.5
Cc1cc(C)c(-n2c(O)c(C=NCCN3CCOCC3)c(=O)[nH]c2=O)c(C)c1	-4	4	-32	-3%	2.0
CCCCCCCCCS(=O)(=O)Nc1cc(C)ccn1	0	4	2	10%	3.4
CCc1ccc2nc(N=C(N)N)nc(C)c2c1	-5	-13	/	9%	4.1
CCc1nc(SCC(=O)Nc2ccc3c(c2)OCCO3)c2oc3ccccc3c2n1	11	-41	-14	3%	1.5
Cc1ccc(/C=C2/C(=O)NC(=O)N(Cc3ccc(F)cc3)C2=O)o1	-1	/	/	/	-0.6
S=C(Nc1ccccc1)Nc1nc2ccccc2n1CCOc1ccc(Br)cc1	3	-18	-11	7%	16
Cc1cc(CNC(=O)c2cc(-c3ccccc3)nc3ccccc23)nn1C	1	-7	/	1%	0.2
CC(=NCCCn1ccnc1)c1c(O)n(C)c(=O)n(C)c1=O	2	-4	-41	4%	-1.7
CCOC(=O)c1ccccc1NC(=O)COC(=O)C1CCCC1	3	/	/	/	3.1
Cc1ccc(NC(=S)N2CCC(N(C)CC3CCCO3)CC2)cc1 (stereo unspecified)	-9	3	/	1%	-0.3
CCn1cc(Cl)c(C(=O)N2N=C(c3ccc4ccccc4c3)CC2c2ccccc2O)n1 (stereo unspecified)	-1	17	-5	1%	1.8
C=CCn1c(O)c(CN2CCCCC2)c(C)c(C#N)c1=O	-3	0	/	-4%	2.7
CN(CCc1cn[nH]c1)C(=O)CC1C(=O)NCCN1Cc1cccc(Oc2ccccc2)c1 (stereo unspecified)	-6	6	/	-2%	-4.3
CN1CCc2c(sc3ncn4nc(-c5ccccc5O)nc4c23)C1	/	-21	13	/	/
O=C(Nc1cccc(C(=O)O)c1)/C(=C\c1ccccc1)NC(=O)c1cccc2ccccc12	-7	0	/	3%	0.2
CCN1CCN(CCNC(=O)c2ccc3c(c2)N(Cc2ccc(F)cc2)C(=O)c2ccccc2S3=O)CC1 (stereo unspecified)	-10	/	/	/	0.3
COc1ccc(C(=O)NC(=S)Nc2ccc(CN3CCOCC3)cc2)cc1Br	11	/	/	/	-1.7

These rows are one share of the data, so the mix of outcomes need not match the whole.
